TRPML1 blocker = human mucolipin-1 channel inhibition; AID 624415; actives 0.02% (n = 390,000); TRPML1-inducible cells, Ca2+ dye fluorescence, FDSS; stronger effect = lower value; inhibition of EC80 agonist-evoked calcium signal; activity change, negative = inhibition, % (concentration not given with the values); Q9GZU1; in the data active means activity change below about -50%; inconclusive means about -30% to -50%; inactive means above about -30%;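 note: stimulus is agonist 54-4 at its EC80 concentration; % is set by controls: 0 for no effect and ±100 for the full control effect; compound concentration not given in the record; the text of the record puts the active cut at -80%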
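TRPML1-DL cells, Tet-induced overnight (~16 h, 37 °C) at 1,500 cells/well, were loaded with Ca8 no-wash dye plus quencher for 45-90 min at room temperature. Compounds were pinned during FDSS kinetic reading; agonist 54-4 at EC80 (4 uM final) then added.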
PINK1 modulator = PINK1 expression modulation. PINK1 immunofluorescence, high-content cytometry, 24 h. Potency, µM (series often up to 76.6 µM), for the others: at the highest dose activation (PINK1 increase), actives largely listed as activators. actives 0.2% (n = 410,000). AID 624263; active = well fitted activation curve with a large enough effect; inconclusive = small, poorly fitted or top-dose-only effect; inactive = flat fitted curve, though single readings scatter; cell line not stated here;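 note: potency is the fitted concentration of half-maximal effect; % of control where 0% means no effect; nearly all actives have a fitted effect of over 65% in size; a mitochondrial uncoupler was the plate control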
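Stable cell line treated 24 h with compounds at 5 concentrations (CCCP controls), then fixed and immunostained for PINK1 plus nuclear and cell stains; PINK1 immunofluorescence quantified by laser-scanning microplate cytometry.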
TRPML1 agonist = human mucolipin-1 channel agonism | Q9GZU1 | TRPML1-expressing cells, Ca2+ dye fluorescence, FDSS; host cell line not named in the record; reference of the full effect not given here | activation, % (test concentration not listed) | actives 0.12% (n = 410,000); in the data active = activation above about 50%; inconclusive = about 30% to 50%; inactive = below about 30%; note: 0% is about no effect; the text of the record puts the active cut at 80%
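Tet-induced TRPML1-DL cells, 1,500 per well, cultured overnight, were loaded with a no-wash Ca2+ dye for 45–90 min. Calcium fluorescence was recorded on the FDSS for 110 s after compound addition, before the EC80 agonist (4 uM 54-4) was added.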
TRPV1 PAM = potentiators of human vanilloid receptor 1 (TRPV1). TRPV1-expressing cells, Fluo-8 calcium influx, capsaicin EC20 potentiation; host cell line not named in the record; control for the full effect not named in the record. potentiation, % at 8.33 µM. actives 0.02% (n = 320,000). AID 540277; active means potentiation above 80%; inconclusive means 30% to 80%; inactive means below 30%; note: 0% is about no effect
Target sequence (Q8NER1 whole entry, looked up): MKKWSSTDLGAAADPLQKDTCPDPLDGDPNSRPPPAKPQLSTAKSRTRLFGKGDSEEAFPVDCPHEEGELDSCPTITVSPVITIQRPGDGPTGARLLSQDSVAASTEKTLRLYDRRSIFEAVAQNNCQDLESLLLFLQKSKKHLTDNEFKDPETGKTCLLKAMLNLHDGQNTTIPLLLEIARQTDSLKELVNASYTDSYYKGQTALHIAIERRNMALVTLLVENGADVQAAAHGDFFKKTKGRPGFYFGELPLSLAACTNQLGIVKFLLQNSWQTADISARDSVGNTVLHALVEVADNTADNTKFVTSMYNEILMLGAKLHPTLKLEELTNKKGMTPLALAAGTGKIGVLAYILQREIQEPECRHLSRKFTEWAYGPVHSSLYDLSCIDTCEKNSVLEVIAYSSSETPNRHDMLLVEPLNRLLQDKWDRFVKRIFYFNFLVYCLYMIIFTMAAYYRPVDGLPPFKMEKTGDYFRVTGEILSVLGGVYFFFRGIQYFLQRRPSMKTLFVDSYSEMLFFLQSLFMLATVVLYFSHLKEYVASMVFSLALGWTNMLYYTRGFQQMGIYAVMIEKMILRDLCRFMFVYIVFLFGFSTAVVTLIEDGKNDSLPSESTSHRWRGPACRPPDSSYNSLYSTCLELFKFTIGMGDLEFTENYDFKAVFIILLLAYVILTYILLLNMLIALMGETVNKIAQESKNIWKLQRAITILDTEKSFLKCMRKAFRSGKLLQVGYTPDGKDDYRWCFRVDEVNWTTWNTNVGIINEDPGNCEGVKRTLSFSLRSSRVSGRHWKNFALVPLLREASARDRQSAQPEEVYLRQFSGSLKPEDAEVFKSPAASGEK
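TRPV1-expressing cells were cultured overnight at 35.5C and loaded with Fluo-8 calcium dye for 40 to 90 min at room temperature. After a 10 s baseline, compound was added and calcium influx was read kinetically for 3 min (ex 480/em 520 nm).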
Sfp PPTase inh = Sfp phosphopantetheinyl transferase inhibition; Q9F4F7; Biochemical Sfp PPTase activity, qHTS; Potency, µM, for the others: max response, negative = inhibition, actives largely listed as inhibitors; actives 3.5% (n = 310,000); AID 1490; active = well fitted inhibition curve with a large enough effect; inconclusive = small, poorly fitted or top-dose-only effect, or another doubt; inactive = no such curve, though single readings can be large or run the other way;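 note: the enzyme is Sfp with the accession as filed and its product quenches rhodamine fluorescence; potency is the fitted concentration of half-maximal effect; 0% = enzyme reaction without inhibitor and -100% = no enzyme wells; top concentration of the series not given in the record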
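Buffer: 50 mM Hepes-Na pH 7.6, 10 mM MgCl2, 0.01% Nonidet P-40, 0.01% BSA. Enzyme 15 nM, pre-exposed to compound 15 min; substrates then added and fluorescence change tracked over 30 min.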
ClpP mod = qHTS Assay for Activators of ClpP. actives 1.9% (n = 340,000). Potency, µM (titrated, usually from 57.5 µM), for inactives: at the highest dose activity change, negative = active. purified B. subtilis ClpP, FRET peptide cleavage, 20 min. ATP-dependent Clp protease proteolytic subunit (Bacillus subtilis (strain 168)), P80244; active = well fitted falling curve with a large enough effect; inconclusive = small, poorly fitted or top-dose-only effect; inactive = no such curve, though single readings can be large or run the other way; note: potency is the fitted concentration of half-maximal effect; the source files actives as falling curves though it sought activators and does not explain the sign; nearly all actives have a fitted effect of over 65% in size; many hits overshoot -100%
Target sequence (P80244 whole entry, looked up): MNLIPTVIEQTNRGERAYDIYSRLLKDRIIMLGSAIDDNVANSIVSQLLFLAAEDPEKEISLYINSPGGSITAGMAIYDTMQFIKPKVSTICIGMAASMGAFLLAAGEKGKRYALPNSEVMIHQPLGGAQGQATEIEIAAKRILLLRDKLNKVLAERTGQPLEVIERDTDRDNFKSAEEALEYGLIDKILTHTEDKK
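Buffer: 100 mM Tris/HCl pH8, 100 mM KCl, 0.05% low protease BSA, 2.5% glycerol, 0.01% Tween-20. ClpP 10 microg/mL final; 20 min RT; delta FRET normalized to ADEP and DMSO controls.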
Menin MLL FP FL = menin-MLL binding inhibition, fluorescein peptide | FP activity change, % at 61.4 µM | Fluorescence polarization, fluorescein-MLL peptide displacement from menin | 290,000 tested, under 10 active | AID 1766; inconclusive = falling polarisation curve, or a change in total fluorescence; inactive = total fluorescence flat and polarisation flat or rising; no compound was filed as active; the % refers to the polarisation; negative = inhibition;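 note: % of control where 0% means no effect; inhibitors lower the polarisation; unlabelled MLL peptide was the positive control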
An asterisk follows results filed as active; ? = inconclusive; . = not tested or not shown; & = joins results of further samples; [ ] = dose if it differs, or a comment. An unsorted share of the library; any-hit rate near 4.4%.

Compound,TRPML1 blocker,PINK1 modulator,TRPML1 agonist,TRPV1 PAM,Sfp PPTase inh,ClpP mod,Menin MLL FP FL
N/C(Cc1ccc([N+](=O)[O-])cc1)=N\OC(=O)c1ccccc1F,9,3.7%,0.6,-2,5%,.,-1.2
COc1cc(NC(=O)CN2CCN(Cc3ccc4c(c3)OCO4)CC2)cc(OC)c1,26,-1.2%,-0.4,5,56µM*,-0.1%,-1.1
Cc1ccc(CNC(=O)c2ccc(N3CCC4(CC3)CC(c3cccc(Br)c3)=NO4)c([N+](=O)[O-])c2)cc1,39,1.6%,0.5,21,.,-1.0%,.
O=C(O)CC(NC(=O)C12CC3CC(CC(C3)C1)C2)c1ccc2c(c1)OCO2 (stereo not given),-14,0.2%,0.0,6,20%,.,1.9
Cc1ccc(/C=C2\SC(=S)N(C3CCS(=O)(=O)C3)C2=O)o1 (stereo not given),2,-0.5%,3.1,-1,50µM*,-1.0%,?
COc1ccc(NC(=O)CC2Nc3ccccc3NC2=O)cc1 (stereo not given),13,2.1%,-0.4,.,.,-6.2%,.
CCC1Nc2ncnc(N3CCN(c4ccccc4)CC3)c2N(Cc2ccccc2)C1=O (stereo not given),-3&-16,0.0%&4.2%,-0.6&-0.6,.,.,-5.1%&-0.2%,.
CCCCCCCn1c(C)nnc1-c1cnn(C)c1N,-23,0.4%,-0.5,4,4%,0.5%,-2.2
CCc1nnc(NS(=O)(=O)c2ccc(NCc3cc(Cl)ccc3O)cc2)s1,4,0.3%,-0.6,12,-8%,.,.
CCCOc1ccc(F)cc1-c1cc(C(=O)Nc2ccc(F)cc2)[nH]n1,.,27%,-0.5,.,.,0.0%,.
CC(C)(C)S(=O)N1Cc2cc(=O)n(Cc3ccccc3)cc2[C@H]1CCO (stereo not given in full),-8,0.7%,-0.8,.,.,-19%,.
COc1nc(N/N=C/c2ccc(-c3ccccc3[N+](=O)[O-])o2)nc(N2CCOCC2)n1,37,-0.1%,0.6,7,14µM*,-1.1%,5.2
OCC1(Cc2cccc(Cl)c2)CCCN(Cc2cnn(-c3ccccc3)c2)C1 (stereo not given),-4,10%,0.2,4,-10%,0.8%,-0.6
O=C(OCc1ccc([N+](=O)[O-])cc1)c1cc(=O)c2ccccc2o1,-1,1.9%,0.1,12,15%,.,-6.0
C=C1C=C(C(F)F)n2ncc(C(=O)Nc3ccc(Br)cc3C(F)(F)F)c2N1,.,0.3%,-0.6,.,.,1.9%,.
Cc1cc(C)cc(-n2c(C)cc(/C=N\NC(=O)COc3cccc4cccnc34)c2C)c1,64,3.2%,2.3,9,-13%,1.3%,0.4
CCCCc1ccc(NC(=O)CSC2=C(C#N)C(c3ccco3)C3=C(CCCC3=O)N2)cc1 (stereo not given),-14,?,0.1,4,7.9µM*,-17%,-4.4
C/C(=N\NC(=O)C1CC1)c1ccc(C)cc1C,-19,2.3%,1.2,.,.,0.9%,.
CCOc1ccc(C(=O)Nc2ccc3oc(-c4ccc(C)cc4C)nc3c2)cc1Br,42,1.7%,0.1,.,.,?,.
O=C1Nc2ccc(Br)cc2C1=C1CCCCC1,-11,0.2%,0.7,-13,-7%,1.6%,-0.6
O=c1oc2c(CN3CCN(CCO)CC3)c(O)ccc2cc1-c1ccccn1,-4,-1.8%,5.1,?,7%,.,?
CCCCC(=O)Nc1ccc(C(N)=O)cc1,7,0.4%,0.0,-1,0%,-2.4%,4.8
CCNc1ncc2nc(-c3cccs3)c(=O)n(C[C@H]3CCCO3)c2n1,.,13%,.,.,18%,.,?
Cc1ccc(C(=O)NCCN2CCOCC2)cc1,2,-2.3%[38.3 µM],0.5,-11,-2%,-2.1%,0.1
O=C(Nc1cccc(C(F)(F)F)c1)C1CCCN(S(=O)(=O)c2cnc[nH]2)C1 (stereo not given),6,1.4%,1.0,26,-2%,-1.4%,-1.5
CCOC(=O)C1(C)NC(c2cccc(C)c2)C2C(=O)N(c3ccccc3)C(=O)C21 (stereo not given),.,-1.1%,.,1,14%,0.7%,-0.6
CCc1ccc(OCCCn2c(-c3ccc(Cl)cc3)nc3ccccc3c2=O)cc1,-3,-0.3%,0.6,.,.,-4.4%,.
Cc1cc(C)n(S(=O)(=O)c2ccc(Cl)c(Cl)c2Cl)n1,-5,2.2%,0.9,-4,5%,0.4%,2.3
CC(=O)NS(=O)(=O)c1ccc(NC(=O)c2ccc(Br)o2)cc1,-3,-1.0%,-0.5,0,18%,-0.2%,2.2
Cc1ccc(CN2C(=O)C3(c4ccccc42)N(c2cccc(C(F)(F)F)c2)C(=O)CS3(=O)=O)cc1 (stereo not given),-2,-4.1%,0.6,.,.,1.6%,.
Cc1ccc(F)cc1C(=O)N1CCOCC1c1cc(C(=O)Nc2ccccc2)no1 (stereo not given),38,0.9%,1.7,.,.,-0.9%,.
COc1cc2nc(NCC(C)c3ccccc3)n3nc(-c4ccccc4)nc3c2cc1OC (stereo not given),1,0.3%,-1.0,.,.,?,.
Cc1ccccc1NS(=O)(=O)c1ccc(S(=O)(=O)N2CCCC2)cc1,8,-0.7%,-0.6,.,.,-0.4%,.
CCOC(=O)c1sc2cccc(F)c2c1S(=O)(=O)N1CCN(c2cccc(Cl)c2)CC1,2,1.2%,1.4,.,.,-3.2%,.
CC(O)(c1cccc(F)c1)c1nc(-c2cnc3ccccc3c2)cs1 (stereo not given),.,?,0.0,.,.,?,.
Cc1cc(-c2n[nH]c(=S)n2/N=C/c2cccc(O)c2)n[nH]1,-3,3.0%,-0.7,8,-23%,.,0.1
Cc1cc(C)nc(NC2=NCCN2C(=S)Nc2c(C)cccc2C)n1,5,-0.1%,2.5,-7,-5%,4.2%,-0.4
CN(CC(=O)Nc1cccc(F)c1)C(=O)c1sc2ccccc2c1Cl,6,0.6%,-0.1,13,.,-1.4%,.
C=CCn1c(SCc2c(C(=O)OC)sc(N)c2C(=O)OC)nnc1-c1ccc(Br)cc1,-4,-1.1%,1.3,?,8%,-1.1%,12
COc1ccc(Br)cc1CNC(=O)C1CCN(C(=O)N(C)C)CC1,-9,0.1%,-0.4,5,18%,-0.3%,-0.2
CC1CCCCN1C(=O)Cn1c(=O)oc2ccccc21 (stereo not given),-8,-1.6%,0.6,-22,9%,-3.9%,-3.1
COc1cc(/C=N/NC(=O)c2ccc3c(c2)OCCO3)cc(Cl)c1O,33,1.2%,-0.1,3,-6%,-5.2%,.
O=C(NCC1CC1)c1cc(-c2ccccc2)nn1CC1CC(c2cccnc2)=NO1 (stereo not given),2,-0.6%,-0.8,.,.,-0.4%,.
c1ccc(-c2nnc(SCC3CCCO3)nc2-c2ccccc2)cc1 (stereo not given),-18,-0.4%,0.7,.,-22%,.,0.0
Cc1cc(C(=O)Nc2ccc(S(=O)(=O)N3CCOCC3)cc2)ccc1[N+](=O)[O-],-7,2.7%,-1.2,-12,15%,1.2%,-3.3
O=C(NCCCN1CCOCC1)C1Nc2ccc(OC(F)(F)F)cc2C2C=CCC12 (stereo not given),-2,0.2%,0.0,.,.,-5.8%,.
C/C(=C\C(=O)c1ccc(Cl)cc1)NCc1ccc2c(c1)OCO2,55,-0.4%,3.4,16,-1%,-4.4%,-1.9
COC(=O)c1ccccc1NC(=O)CSc1ncn[nH]1,-9,1.2%,-0.4,8,8%,.,0.5
COc1ccc(/C=N/NC(=O)c2ccc(=O)[nH]n2)cc1OC,-28,-0.6%,-0.4,2,20%,-0.6%,-0.3
Cc1cccc(C)c1OCC(=O)N(Cc1ccc(Cl)cc1)C1CCS(=O)(=O)C1 (stereo not given),-7,-1.6%,0.4,-11,-2%,-0.7%,2.3
COc1ccc(NC(=O)COC(=O)c2ccc([N+](=O)[O-])o2)cc1Cl,2,-1.6%,-0.3,-1,11%,0.7%,-1.3
CCN(C[C@H]1N[C@@](Cc2ccccc2)(C(=O)OC)[C@H]2C(=O)N(C)C(=O)[C@@H]12)C(=O)c1ccc(F)cc1,9,0.0%,2.9,.,.,3.2%,.
CC(=O)c1cnc(Nc2nc(C)c3cccc(C)c3n2)nc1C,.,.,.,8,7%,.,-1.3
Cc1cc(Cl)ccc1OCc1cc(=O)n2c3c(sc2n1)CCCC3,-3,-0.3%,-0.5,.,.,-2.8%,.
CN(C)/C=C/C(=O)c1ccc(Oc2ccccc2)cc1,1,0.6%,-0.5,11,-3%,.,6.7
COc1ccc(Cc2nnc(NC(=O)Nc3ccc(C)cc3)s2)cc1OC,-12,1.6%,0.8,19,-4%,1.9%,6.4
CC1CCN(S(=O)(=O)c2cc(Cl)ccc2Br)CC1,71,?,3.8,-15,?,-0.1%,2.8

Sorted by formula weight (high to low): part of the list above
Compound,TRPML1 blocker,PINK1 modulator,TRPML1 agonist,TRPV1 PAM,Sfp PPTase inh,ClpP mod,Menin MLL FP FL
CCN(C[C@H]1N[C@@](Cc2ccccc2)(C(=O)OC)[C@H]2C(=O)N(C)C(=O)[C@@H]12)C(=O)c1ccc(F)cc1,9,0.0%,2.9,.,.,3.2%,.
Cc1cc(Cl)ccc1OCc1cc(=O)n2c3c(sc2n1)CCCC3,-3,-0.3%,-0.5,.,.,-2.8%,.
CC1CCCCN1C(=O)Cn1c(=O)oc2ccccc21 (stereo not given),-8,-1.6%,0.6,-22,9%,-3.9%,-3.1

Bioassay records deposited in PubChem BioAssay by National Center for Advancing Translational Sciences (NCATS).
